Sa growth inh – S. aureus growth inhibition at 42 and 30 °C, primary screen, LtaS inhibitor project, RN4220, two temperatures | OD600, 20 h, 42 °C; active compounds read low | relative growth, % (concentration not given with the values) | actives 0.53% (n = 170,000) | AID 720641, 2013;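 active means growth at 42 °C up to 50% and 20 or more points under that at 30 °C, or under 10% at both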;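 further: 300 nL library stock went into each well; scaled to the means of positive and negative controls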
GIV-Gai inh – inhibitors of GIV peptide binding to Galpha-i3, primary screen, biochemical, fluorescence polarization, FITC-GIV GBA peptide, rat Galphai3. 90 min; active compounds read low; scaled: aluminum fluoride 0%, vehicle 100%. percent of control (FP), % (concentration not given with the values). actives 0.42% (n = 210,000). AID 1224905, 2016;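 active means replicate mean at 85% of control or lower, very high polarization wells dropped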;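 further: wells of about 15 µL received 100 nL stock; the first replicate is given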
Target sequence (P08753 whole entry, looked up): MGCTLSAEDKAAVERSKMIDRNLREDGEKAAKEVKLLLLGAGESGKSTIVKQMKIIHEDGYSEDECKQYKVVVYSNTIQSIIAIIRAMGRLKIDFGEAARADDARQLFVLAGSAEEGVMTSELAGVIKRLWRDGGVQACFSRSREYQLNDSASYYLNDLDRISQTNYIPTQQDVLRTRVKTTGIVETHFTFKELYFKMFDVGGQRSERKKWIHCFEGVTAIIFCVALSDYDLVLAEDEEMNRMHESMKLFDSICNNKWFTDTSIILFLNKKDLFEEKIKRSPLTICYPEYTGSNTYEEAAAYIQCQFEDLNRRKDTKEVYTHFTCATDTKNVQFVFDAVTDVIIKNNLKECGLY
HCMV NEC inh – inhibitors of HCMV UL50-UL53 interaction, biochemical, HTRF; HCMV UL50-UL53 nuclear egress complex (human cytomegalovirus); AID 1918969, 2023; inhibition, % (no concentration beside the values); normalized percent inhibition; actives 0.15% (n = 190,000);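 active means both replicates at 50% or more, plus weaker picks with an unusually low signal ratio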;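 further: stock transfer was 100 nL into about 20 µL; 0% = negative control wells and 100% = wells with untagged competitor protein; inactives centre near -12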
Sa growth inh second temp – further read-out of Sa growth inh, marked with its call; relative growth, %; measured here: growth at 30 °C;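 optical density after 20 h as mean of two plates; 100% = untreated growth and lower means inhibition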
Active calls of the source: *; / = not tested or not shown; & = joins results of further samples.

SMILES | Sa growth inh | Sa growth inh second temp | GIV-Gai inh | HCMV NEC inh
O=C(NCCOC12CC3CC(CC(C3)C1)C2)c1cc2ccccc2oc1=O | 95 | 72 | / | -44
Cc1ccc(NC(=O)c2ccco2)c(NC(=O)COc2ccc(I)cc2)c1 | 100 | 102 | 102 | 1
Nc1ccc(-c2n[nH]c(=O)c3ccccc23)cc1N | 94 | 69 | 106 | -51
COc1ccc(NC(=O)c2ccco2)cc1Nc1cc(C)nc2nc(-c3cccc(C)c3)nn12 | 83 | 85 | 98 | -26
CC1CCN(C(=O)COC(=O)c2ccc(-c3ccccc3)cc2)CC1 | 93 | 104 | / | 11
CCc1nnc(SCc2nc(-c3ccc(OC)c(OC)c3)oc2C)c2cc3oc(C)cc3n12 | 99 | 88 | 114 | -26
CCOc1cc(CNC(=O)c2ccc3c(c2)N(C)C(=O)C2CCCCN32)ccc1OC (configuration not stated) | 79 | 78 | 98 | /
O=C(O)COCC(=O)N1CCN(C2c3ccccc3-c3ccccc32)CC1 | 125 | 98 | 105 | 48
Cc1ccc(Nc2nc(CSc3nc4ccccc4s3)cc(=O)[nH]2)cc1 | 98 | 83 | 95 | /
CCOc1nc(-c2ccccc2)cc(-c2ccccc2)n1 | 94 | 80 | 98 | -36
Cc1ccc(C(=O)C(C)C2c3cc(Br)ccc3OC(=O)C2C(=O)c2ccccc2)cc1 (configuration not stated) | 92 | 81 | 97 | /
O=C(NCC1COc2ccccc2O1)C1CCN(S(=O)(=O)c2ccccc2)CC1 (configuration not stated) | 103 | 89 | / | 14
COc1ccc(C(N)C(=O)O)cc1 (configuration not stated) | 92 | 101 | / | 9
CN(C1CCCCC1)S(=O)(=O)c1ccc2c(c1)OCC(C(=O)N1CCCCC1)O2 (configuration not stated) | 87 | 67 | 98 | -6
CCCn1c2ccccc2c2cnn(CC(=O)NCCc3ccc(OCC)c(OCC)c3)c(=O)c21 | 98 | 99 | 105 | /
Cc1cc2nnc(C#N)c(C)n2n1 | 88 | 59 | 104 | -112
CC(C)c1ccc(Nc2cc(C(=O)NC3CCCCC3)c3ccccc3n2)cc1 | 99 | 94 | 104 | -10
CCn1c(C(=O)Nc2cc(C)cc(C)c2)cc2sc(Cl)cc21 | 71 | 106 | 107 | 0
O=C(CCCN1C(=O)c2ccccc2Sc2ncccc21)NCc1ccccc1Cl | 106 | 91 | 104&107 | -22
Cc1ccc(CN2CCN(C3CCN(C(=O)c4ccc(C)cc4)CC3)C(=O)C2=O)cc1 | 86 | 88 | 103 | /
CCn1c(NC(=O)COc2cccc(C(F)(F)F)c2)nc2ccccc21 | 94 | 90 | / | -20
Clc1ccc2nnc(-c3cccc(Br)c3)n2n1 | / | / | 106 | -86
Cc1cc(C)cc(-n2ccn3c(CCC(=O)NC4CCN(Cc5ccccc5)CC4)nnc3c2=O)c1 | / | / | 100 | -32
Brc1csc(CN2CCc3nc(Nc4ccccc4)ncc3C2)c1 | 117 | 84 | 102 | /
CCOC(=O)C1CCCCN1S(=O)(=O)c1cc2c(cc1C)NC(=O)CO2 (configuration not stated) | 98 | 82 | 99 | -15
SMILES | Sa growth inh | Sa growth inh second temp | GIV-Gai inh | HCMV NEC inh
COc1ccc2c(c1)cc1c(=O)n(CC(=O)NC3CCCCC3)nc(C)n12 | 112 | 91 | 97 | -19
COc1ccc(CCNC(=O)c2cn(C)c3ccc(S(=O)(=O)N4CCOCC4)cc3c2=O)cc1OC | 92 | 87 | 98 | 2
CNC(=O)C1CC(=O)N(Cc2ccc(F)cc2)C(=Nc2ccc(F)cc2)S1 (configuration not stated) | 87 | 94 | 105 | -26
CCOC(=O)N1CCN(C(=O)CN(C)S(=O)(=O)c2ccc3c(c2)C(C)(C)C(=O)N3C)CC1 | 97 | 93 | 108 | 9
COc1cccc(C2Nc3cccc4cccc(c34)N2)c1O | 105 | 77 | 107 | /
CCOc1nc2c(c(C)nn2-c2ccc(C)cc2)c(C)c1CCC(=O)Nc1ccc(OC)c(OC)c1 | / | / | 105 | -29
O=C(CSc1ncnc2sc(-c3ccccc3)cc12)c1cccs1 | 90 | 77 | 92 | -137
CCn1c(CCc2ccccc2)nc2ccccc21 | 96 | 82 | 101 | /
CSc1nnc(C2CCCN(CC(=O)NC3CCCCC3C)C2)n1C (configuration not stated) | 97 | 75 | 101 | -4
c1ccc(CN2CCN(Cc3nnc(-c4ccccc4)o3)CC2)cc1 | 99 | 83 | 104 | -8
CCOC(=O)C(C)Oc1ccc2c(=O)c(Oc3cccc(C)c3)c(C(F)(F)F)oc2c1 (configuration not stated) | / | / | 101 | -10
O=c1oc2ccc(Cl)cc2cc1-c1nc2ccccc2s1 | 113 | 83 | / | -6
COc1ccc(-c2nc(C)c(CCNS(=O)(=O)c3ccc(Cl)s3)s2)cc1OC | 94 | 81 | 103 | /
Cc1cc(N2CCC(C(=O)Nc3ccc(F)cc3C)CC2)n2nc(C)c(-c3ccc(Cl)cc3)c2n1 | 102 | 87 | 103 | -32
CCc1c(C)sc(NC(=O)c2cccs2)c1C(N)=O | 85 | 75 | / | -10
COc1ccc(C(=O)Nc2ccc3nc(SCC(=O)N4CCCc5ccccc54)sc3c2)cc1 | 103 | 96 | 110 | 15
COC(=O)c1ccc(C(=O)OC)c(NC(=O)c2nn(-c3ccccc3)c(=O)cc2OC)c1 | / | / | 98 | 0
O=C(Nc1ccccc1)Nc1ccc2snnc2c1 | 14 | 12 | 111 | -10
O=C(NC1CCCCC1)C(c1ccccc1)N1CCc2ccccc21 (configuration not stated) | 111 | 98 | 104 | /
O=C1c2ccccc2C(=O)N1CCCCN(C(=O)c1ccco1)c1ccc(Cl)cc1 | 87 | 77 | 103 | 5
CC1S/C(=C(/C#N)C(=O)NCc2ccco2)N(Cc2ccco2)C1=O (configuration not stated) | 90 | 96 | / | -6
COC(=O)C(C)Sc1ccc2nnc(-c3ccccc3)n2n1 (configuration not stated) | 97 | 72 | 102 | -23
NC(=O)CC1C=CS(=O)(=O)C1 (configuration not stated) | 99 | 91 | / | 3
CC(C)c1ccc(NC(=O)C(c2ccccc2)N(C)c2ccccc2)cc1 (configuration not stated) | 97 | 87 | 99 | /
O=C(CSCc1ccco1)c1ccco1 | 82 | 100 | / | -12
SMILES | Sa growth inh | Sa growth inh second temp | GIV-Gai inh | HCMV NEC inh
O=C(Cn1nc(N2CCN(c3ccccc3)CC2)ccc1=O)NCc1cccc(Cl)c1 | 85 | 98 | 111 | /
CC(C)n1c(=N)c(C#N)cc2c(=O)n3ccccc3nc21 | 94 | 85 | / | -26
CN=c1scc(-c2ccc3c(c2)OCCO3)n1/N=C/c1ccc(NC(C)=O)cc1 | 115 | 104 | / | -7
CCOC(=O)c1cn[nH]c1N | 94 | 88 | 105 | 3
CCOC(=O)c1c(C)[nH]c(C)c1S(=O)(=O)NCC(=O)NCc1cccc(Br)c1 | 100 | 90 | 109 | /
CNc1ccccc1C(C)(C)c1cc(-c2cccs2)n[nH]1 | 74 | 86 | / | -29
Cc1cc(-n2c(C)cc(/C=C/C(=O)N3CCN(c4ncccn4)CC3)c2C)no1 | 115 | 108 | / | 10
c1ccc2c(c1)-c1ccccc1C2N1CCOCC1 | 84 | 100 | / | -2
COc1cccc(NC(=O)c2sc(-n3nc(C)c(Cc4ccccc4Cl)c3C)nc2C)c1 | 118 | 95 | 102 | 7
Nc1nc2c(c(=O)[nH]1)CCC2 | 101 | 90 | 96 | -4
NCC(=O)NCc1ccco1 | 97 | 86 | / | -11
CC(=O)Nc1ccc(Nc2ncnc3c2c(-c2ccccc2)cn3-c2ccccc2)cc1 | 104 | 100 | 102 | /
O=C(NCc1ccccc1)c1cc(-c2ccccc2)n[nH]1 | 96 | 78 | 103 | /
COc1ccc(-c2cc(NCc3ccccc3)n3cnnc3n2)cc1 | 102 | 73 | 108 | -10
COc1ccc(Cl)c(Cn2c(NCCN)nc3c2c(=O)n(C)c(=O)n3C)c1 | 98 | 87 | 107 | -26
CCN(C(=O)c1cccc(F)c1)C1CCS(=O)(=O)C1 (configuration not stated) | 82 | 83 | 100 | -20
O=C(CCNS(=O)(=O)c1ccccc1)N1CCCc2ccccc21 | 100 | 97 | / | -13
O=C(COC(=O)c1ccc(S(=O)(=O)N2CCOCC2)cc1)Nc1ncc(Cl)cc1Cl | 93 | 87 | / | -7
O=C(NC(=O)c1cc(-c2ccc(Cl)cc2)oc1C(F)(F)F)c1ccccc1O | 113 | 91 | 105 | 40
C#CCNC(=O)NC1CCCN(S(=O)(=O)c2ccc(C)cc2)C1 (configuration not stated) | 109 | 82 | 109 | -6
COc1ccc2cc3c(nc2c1)N(C(=O)C1CCCCC1)CC3 | / | / | 107 | -13
C(=Nc1ccccc1)c1ccc(Oc2ccccc2)cc1 | 114 | 107 | / | -2
CC1(O)N(CCc2ccccc2)C(=O)OC12CCCCC2 (configuration not stated) | 77 | 109 | / | 3
Cc1cc(NC(=O)c2cc(-c3cccc(Cl)c3)on2)n(-c2ccccc2)n1 | 85 | 97 | 99 | -61
CCN(c1ccccc1)S(=O)(=O)c1ccc(Sc2nnc(-c3cccs3)n2CC2CCCO2)nc1 (configuration not stated) | 75 | 92 | / | -6

Filtered by structure: those above with a CF3 group.
SMILES | Sa growth inh | Sa growth inh second temp | GIV-Gai inh | HCMV NEC inh
CCn1c(NC(=O)COc2cccc(C(F)(F)F)c2)nc2ccccc21 | 94 | 90 | / | -20
CCOC(=O)C(C)Oc1ccc2c(=O)c(Oc3cccc(C)c3)c(C(F)(F)F)oc2c1 (configuration not stated) | / | / | 101 | -10
O=C(NC(=O)c1cc(-c2ccc(Cl)cc2)oc1C(F)(F)F)c1ccccc1O | 113 | 91 | 105 | 40

Next section:
SMILES | Sa growth inh | Sa growth inh second temp | GIV-Gai inh | HCMV NEC inh
O=C(CSc1nnc(Cc2cccs2)n1C1CCCCC1)c1ccccc1 | 36 | 15 | / | -23
COc1ccc(Cl)cc1S(=O)(=O)Nc1ccc(CC(=O)O)cc1 | 81 | 83 | 102 | -30
Cc1csc(=O)n1CN1CCN(S(=O)(=O)c2ccccc2C#N)CC1 | 67 | 87 | / | -33
CCOC(=O)N1CCN(C(=O)c2cc(I)ccc2NC(=O)c2ccco2)CC1 | 106 | 93 | 108 | -10
CCc1ccc2[nH]c(=O)c(CN(Cc3ccccc3)Cc3nnnn3C3CCCC3)cc2c1 | 115 | 89 | 99 | -16
NC(=O)Cc1nc2ccccc2[nH]1 | 121 | 96 | / | 0
Cc1ccc(N2C3=C(C(=O)CC(C)(C)C3)C(c3cnn(C)c3)C3=C2CC(C)(C)CC3=O)cc1 | 77 | 85 | 98 | /
O=C(O)C1CC(=O)N(CCc2cccs2)C1 (configuration not stated) | 106 | 102 | 100 | 7
Cc1cc(C)c(C)c(S(=O)(=O)NC2(C#N)CCCCC2)c1C | 78 | 93 | / | -14
CCNc1ncccc1-c1nc(-c2ccccc2)no1 | / | / | 99 | -19
CC1CC(=O)NN=C1c1ccc2c(c1)nnn2O (configuration not stated) | 107 | 97 | 101 | -20
CN1CCN(c2oc(-c3ccccc3Cl)nc2S(=O)(=O)c2ccccc2)CC1 | / | / | 103 | -10
Cn1c(C(=O)Nc2ccc(F)cc2Cl)cc2c(=O)oc3ccccc3c21 | / | / | 107 | 10
CNS(=O)(=O)c1ccc(SC)cc1 | 97 | 77 | 101 | -15
Cc1cc(C)c2c(n1)SCCN2C(=O)NCCC(=O)NCCN(C)C1CCCCC1 | / | / | 113 | -2
O=C(O)c1ccc2nccnc2c1 | 96 | 98 | 106 | -82
CNc1ccc(-c2nc(-c3ccccc3C)no2)cc1[N+](=O)[O-] | 101 | 87 | 102 | -18
O=C(CSC1=NS(=O)(=O)c2cc(F)ccc2N1)NC1CCCC1 | 89 | 90 | 103 | -17
CCCNC(=O)N1CCCN(S(=O)(=O)c2ccc3c(ccn3CC)c2)CC1 | 71 | 81 | 100 | /
O=C(NCc1ccc(Cl)cc1)c1ccc(S(=O)(=O)c2ccccc2)nc1 | / | / | 101 | -16
CCN1C(=O)c2cc(NS(=O)(=O)CC)ccc2Oc2ccccc21 | / | / | 101 | -13
CCc1cc2c(cc3c(=O)n(CC(=O)NCc4cc(Br)ccc4OC)ncn32)s1 | 95 | 84 | 100 | 3
Cc1cc(C)c(-c2cc(NC(=O)CN3CCCC(C(N)=O)C3)n(-c3ccccc3)n2)cc1C (configuration not stated) | 98 | 91 | / | -2
Cc1ccc2cc3cc(C(=O)N4CCN(c5cc(Cl)ccc5C)CC4)oc3nc2c1 | 88 | 100 | 98 | /
Cc1ccc2nc(NCCO)[nH]c2c1 | 94 | 100 | 100 | /
CN(Cc1ccccc1)Cc1cc(=O)n2[nH]c(-c3ccc(C(C)(C)C)cc3)nc2n1 | / | / | 99 | -15
O=C1c2ccccc2C(=O)N1CN1CCCCC1 | 102 | 76 | 99 | /
Cn1c(=O)c2c(nc(OCc3ccccc3)n2C)n(C)c1=O | 85 | 97 | 97 | 0
Cc1ccc2c(c1)C=C(C(=O)Nc1ncc(Cc3ccccc3)s1)C=CO2 | / | / | 101 | -26

Just GIV-Gai inh and Sa growth inh second temp (3 entries from above):
canonical_smiles	GIV-Gai inh	Sa growth inh second temp
CCN1C(=O)c2cc(NS(=O)(=O)CC)ccc2Oc2ccccc21	101	/
CCc1cc2c(cc3c(=O)n(CC(=O)NCc4cc(Br)ccc4OC)ncn32)s1	100	84
Cc1cc(C)c(-c2cc(NC(=O)CN3CCCC(C(N)=O)C3)n(-c3ccccc3)n2)cc1C (configuration not stated)	/	91
